From PubChem BioAssay
INS promoter inh: TRM-6 insulin promoter activity inhibition; inhibition, % at 2 µM; 0.9% of 130,000 active; AID 1273; TRM-6 cells (human fetal islet line), insulin promoter-eGFP reporter, imaging; reporter expression induced with tamoxifen;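 active means inhibition above the mean plus 3 SD, with well images judged a real hit on visual review, cut at about 60% in these data, passing the limit was not always enough; inconclusive means inhibition over the cutoff but images rejected on review; inactive means inhibition not above the cutoff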
PKD1 kinase inh: PKD1 (human) kinase inhibition. Q15139. PKD1 kinase fluorescence polarization assay. inhibition, %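 (about 10 µM by stock and volumes)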. 0.056% of 200,000 active. AID 797;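 active means inhibition of 50% or more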;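 further: controls were vehicle for no effect and a reference inhibitor for full effect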
GALR2 agonist: activates the human galanin receptor 2. 0.48% of 140,000 active. activation, %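 (tested at 5 µM)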. GALR2-expressing cells, agonist activation read-out. O43603;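 active means above mean plus 3 SD of all compounds, about 5% in these data, not always enough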;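 further: 0% = vehicle buffer wells and 100% = reference agonist at full effect; tested in CHO reporter cells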
Target sequence (O43603 whole entry, looked up): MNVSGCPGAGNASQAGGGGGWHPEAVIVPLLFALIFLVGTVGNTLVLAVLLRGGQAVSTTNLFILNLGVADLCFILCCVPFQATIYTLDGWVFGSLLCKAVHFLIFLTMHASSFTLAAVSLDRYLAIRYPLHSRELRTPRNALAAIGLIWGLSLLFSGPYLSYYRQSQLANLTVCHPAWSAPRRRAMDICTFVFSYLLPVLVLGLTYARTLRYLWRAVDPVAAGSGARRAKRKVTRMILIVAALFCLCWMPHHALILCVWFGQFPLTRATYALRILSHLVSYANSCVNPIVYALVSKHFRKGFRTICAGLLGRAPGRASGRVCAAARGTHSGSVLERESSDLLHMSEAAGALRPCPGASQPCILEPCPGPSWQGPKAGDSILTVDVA
HSV replic up: HSV replication enhancement; HSV replication augmentation in cells, fold increase; maximum fold increase; 0.005% of 220,000 active; AID 1956;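 active means peak rise of 1.5-fold or more in the series; inconclusive means self-fluorescent or not available for retest; tested in PC3 cells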;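 further: first round at 10 µM; read as green reporter fluorescence; hits show the peak of a series up to 25 µM; 1 = signal of infected wells without compound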
RGS16-Gao: RGS16-Galphao interaction regulator (human); O15492+P09471; bead-based flow cytometry RGS16-Galphao binding, fluorescence; actives lie on both sides; binding response (% of control), % at 10 µM; 0.38% of 220,000 active; AID 1441;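 active means below 25% or above 175%, edge rows of some plates excepted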;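 further: Galphao activated by GDP with aluminum fluoride before binding; 100% = wells without compound and 0% = beads without RGS; some results beyond the cut were filed as inactive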
Target sequence (O15492 whole entry, looked up): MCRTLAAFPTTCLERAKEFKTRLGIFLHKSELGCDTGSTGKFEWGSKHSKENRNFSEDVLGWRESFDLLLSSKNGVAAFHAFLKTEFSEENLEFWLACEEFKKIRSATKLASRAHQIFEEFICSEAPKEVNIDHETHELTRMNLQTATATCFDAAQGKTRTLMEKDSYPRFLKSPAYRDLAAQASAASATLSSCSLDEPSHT
Target sequence (P09471 whole entry, looked up): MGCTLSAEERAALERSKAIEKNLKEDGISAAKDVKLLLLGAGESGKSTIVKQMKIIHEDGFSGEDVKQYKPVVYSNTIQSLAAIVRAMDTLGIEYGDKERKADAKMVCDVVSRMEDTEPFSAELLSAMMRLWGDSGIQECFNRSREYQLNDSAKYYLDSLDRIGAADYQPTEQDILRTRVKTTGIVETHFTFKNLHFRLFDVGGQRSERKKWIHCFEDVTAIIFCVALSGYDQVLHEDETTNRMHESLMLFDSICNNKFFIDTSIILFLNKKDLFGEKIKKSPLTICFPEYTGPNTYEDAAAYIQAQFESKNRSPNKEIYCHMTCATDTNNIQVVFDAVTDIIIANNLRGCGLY
INS promoter inh cell count: recorded beside INS promoter inh, whose call it bears; normalized cell count, %; measured here: cell count, toxicity; reference of the scale not given here;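 cells exposed to compound for 48 h; stained nuclei by imaging scaled within each plate; lower means fewer cells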
HSV replic up primary fold: further read-out of HSV replic up, marked with its call; fold increase; compound at 10 µM; measured here: primary screen fold increase 10 uM; tested in PC3 cells;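 GFP signal in the first replicate; 1 = infected wells without compound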
* hit, by the source's call; i = inactive; ? = inconclusive; nt = no result given. Rows were taken by chance; overall some 1.3% were active at least once.

The line under a structure holds: PKD1 kinase inh	HSV replic up	INS promoter inh	HSV replic up primary fold	RGS16-Gao	INS promoter inh cell count	GALR2 agonist
Cc1ccc(C)c(OCC(O)CN2CCN(CCN3C(=O)c4cccc5cccc(c45)C3=O)CC2)c1 (centres undefined)
  3	i	-81	0.59	89	78	-2.1
COc1ccc(N2CCN(C(CNC(=O)c3ccc4c(c3)OCO4)c3ccco3)CC2)cc1 (centres undefined)
  1	i	22	0.91	101	98	nt
COc1ccccc1-c1c(C)nn2c(-c3ccccc3)cc(C)nc12
  nt	i	nt	0.98	102	nt	nt
CS(=O)(=O)N1CCN(C(=O)Nc2ccccc2)CC1
  -14	i	nt	0.88	98	nt	nt
Cc1cc([N+](=O)[O-])cc2c1NCC1CC=CC21 (centres undefined)
  2	i	6	0.92	101	112	-0.5
CCOC(=O)N1CCC2(CC1)C(C#N)=C(N)Oc1c2sc2nc(C)cc(C)c12
  -2	i	-285	0.83	100	62	0.3
CCn1c(SCC(O)c2ccccc2)nnc1-c1ccccc1 (centres undefined)
  4	i	36	0.91	111	89	0.1
CCn1ncc(C2=NOC(C(=O)Nc3ccc4c(c3)OCO4)C2)c1C (centres undefined)
  -6	i	7	1	150	77	-1.1
Cc1nnsc1C(=O)Nc1ccccc1
  0	i	23	0.98	100	123	0.6
COc1cc(NC(=O)Cc2c(C(=O)O)n(C)c3ccccc23)cc(OC)c1OC
  -5	i	nt	0.93	83	nt	nt
CCC(C)NC(=O)c1cc(CC(C)C)on1 (centres undefined)
  -7	i	nt	0.99	104	nt	0.1
c1ccc(C2Nc3ccccc3-c3nc4ccccc4n32)nc1 (centres undefined)
  -1	i	nt	1	105	nt	-2.4
Brc1ccc(/C=N/N2CCN(C3c4ccccc4-c4ccccc43)CC2)s1
  -11	i	0	0.98	106	121	-2.5
COC/C=C/C1=CC2=CC(=O)C(C)(OC(=O)c3cnc4ccccc4n3)C(=O)C2=CN1CCCCO (centres undefined)
  nt	i	nt	0.98	96	nt	nt
CCCCCC1=NN2C(=O)CC(=O)N=C2S1
  nt	i	nt	1.1	98	nt	nt
O=C(CSc1ccc(-c2cccs2)nn1)N1CCCCCC1
  0	i	nt	0.96	101	nt	-0.8
CCC(=O)NC(c1ccc(N(C)C)cc1)c1c(O)ccc2ccccc12 (centres undefined)
  3	i	nt	0.97	96	nt	nt
CCCc1nnc2n1N=C(c1ccc([N+](=O)[O-])cc1)CS2
  nt	i	nt	1	101	nt	nt
CCOc1ccc(CNc2ccc(N3CCOCC3)c(C(=O)O)c2)cc1
  -6	i	54	0.81	97	115	-0.2
Cn1cccc1/C=C1\CCC/C(=C\c2cccn2C)C1=O
  -5	?	-81	nt	91	109	-3.7

Profiles, quoted from the list.
CCC(C)NC(=O)c1cc(CC(C)C)on1 (centres undefined) reads PKD1 kinase inh = -7; HSV replic up = i; INS promoter inh = nt; HSV replic up primary fold = 0.99; RGS16-Gao = 104; INS promoter inh cell count = nt; GALR2 agonist = 0.1
CCn1c(SCC(O)c2ccccc2)nnc1-c1ccccc1 (centres undefined) reads PKD1 kinase inh = 4; HSV replic up = i; INS promoter inh = 36; HSV replic up primary fold = 0.91; RGS16-Gao = 111; INS promoter inh cell count = 89; GALR2 agonist = 0.1

Additional entries follow:
The line under a structure holds: PKD1 kinase inh	HSV replic up	INS promoter inh	HSV replic up primary fold	RGS16-Gao	INS promoter inh cell count	GALR2 agonist
COc1ccc2nc(NC(=O)CSc3nnc(N)s3)sc2c1
  2	i	nt	0.95	110	nt	-0.7
N#C/C(=C(/O)CCCl)c1ccccn1
  3	i	53	0.93	102	148	nt
CCC(=O)O[C@@H]1CC(=O)O[C@H](C)CC=CC=C[C@@H](O)[C@H](C)C[C@H](CC=O)[C@H](O[C@H]2O[C@H](C)[C@@H](O[C@H]3C[C@@](C)(O)[C@@H](OC(=O)CC)[C@H](C)O3)[C@H](N(C)C)[C@H]2O)[C@H]1OC
  nt	i	nt	0.79	106	nt	nt
Cc1cc(C(=O)CSc2nncs2)c(C)n1Cc1ccco1
  4	i	nt	1	100	nt	nt
S=c1[nH]c2ccc3ccccc3c2[nH]1
  3	i	nt	1.1	101	nt	nt
O=C1OCCN1C(=O)[C@H]1[C@H](c2ccc(F)cc2)C(c2ccc(F)cc2)=NN1c1ccccc1
  -7	i	36	0.86	223	102	1.5
Cc1ccc(-c2nn(C)c(=O)c3ccccc23)cc1CNC(=O)c1ccco1
  1	i	33	0.85	93	98	-2.3
Cc1oc2nc(SCC(=O)NC3CCCCC3)nc(N)c2c1C
  -5	i	-8	0.88	nt	63	-2.3
N#C/C(=C\c1c(N2CCCCC2)nc2ccccn2c1=O)C(=O)NCc1ccco1
  10	i	-3	1	101	55	-0.7
Cc1ccc(NC(=O)c2ccc(OC(=O)CCN3C(=O)c4ccccc4C3=O)cc2)cc1
  -6	i	36	0.99	100	84	-1.6
COc1cccc(/C=C/c2ccccn2)c1O
  nt	i	nt	1.1	101	nt	nt
O=C1CCSc2cccc3cccc(c23)N1
  2	i	7	0.92	90	126	0.2
COC(=O)c1ccccc1NC(=O)Cn1nc2n(C)c3ccccc3n2c(=O)c1=O
  4	i	nt	1	105	nt	-0.6
CC(C)(C)OC(=O)NCC(=O)NCC(=O)OCc1ccccc1
  -8	i	-29	0.9	96	115	-3.7
Cc1ccccc1OCC(=O)O/N=C(\N)Cc1ccc(Cl)cc1
  -10	i	13	0.9	101	143	-1.9
CC1CCN(c2ncnc3ccccc23)CC1
  -4	i	-11	0.86	98	95	-3.1
O=c1[nH]nc(CNc2ccc(C(F)(F)F)cc2)c2ccccc12
  -4	i	nt	0.9	103	nt	nt
CN(CCc1ccccn1)c1ncnc2[nH]ncc12
  1	i	75*	0.82	107	78*	-0.8
COc1ccc(CN(C)CC(=O)Nc2cc(OC)c([N+](=O)[O-])cc2C)c(OC)c1
  -5	i	71*	0.91	120	62*	-0.8
CC(=O)NN1C(=O)/C(=C/c2ccc(Br)o2)SC1=S
  -8	i	-22	0.95	100	86	-0.7
CCN(CC)CCNC(=O)C12CC3CC(C)(CC(C)(C3)C1)C2
  -4	i	6	0.94	104	93	0.8
O=C(O)CN1C(=O)CCS(=O)c2ccccc21 (centres undefined)
  -11	i	-30	1.1	106	105	-0.1
Cc1ccc(-c2nc(N)n(C(=O)Cc3ccccc3)n2)cc1
  -6	nt	-41	nt	101	108	1.0
Cc1ccc(C)c(NC(=O)C2CCCN2C(=O)NC2CCCCC2)c1 (centres undefined)
  4	i	nt	1	107	nt	nt
CCOC(=O)Cc1csc(NC(=S)NC(=O)c2ccccc2)n1
  4	i	-23	0.97	94	82	-1.1
Cc1ccccc1C(=O)Nc1nnc(CC(=O)N/N=C/c2ccncc2)s1
  nt	i	nt	0.9	100	nt	nt
O=C(NC1CCCCCCC1)c1cnccn1
  -3	i	nt	1	110	nt	0.7
CC(=O)Nc1ccc(NC(=O)C(C)c2cccc(C(=O)c3ccccc3)c2)cc1 (centres undefined)
  -4	nt	8	nt	109	123	0.9
Cc1oc(-c2ccc(Cl)cc2)nc1CS(=O)CC(=O)NCCCN(C)C1CCCCC1 (centres undefined)
  -6	i	0	0.86	103	110	0.2
CCCCOc1ccc(-c2nnn(CC(=O)c3c[nH]c4ccccc34)n2)cc1
  -11	i	-14	0.95	90	40	-1.2
COc1ccc(OC)c(C(=O)c2ccc(C(=O)N3CCCCC3)cc2)c1
  -1	i	-6	1.1	101	88	-1.2
CCc1nnc(NC(=O)C2CC(=O)N(Cc3ccccc3)C2)s1 (centres undefined)
  2	i	nt	1.1	99	nt	nt
CCC(C)(C)NC(=O)CN(C(=O)CNS(=O)(=O)c1ccccc1)c1ccccc1
  20	i	-78	0.86	102	136	-2.6
Cc1nn(C(=O)c2nn(C)cc2Cl)c(C)c1Br
  -14	i	-54	1	102	140	-0.1
Cc1ccc(/C=N/N2C(=O)c3ccccc3NC2c2ccc(C)cc2)cc1 (centres undefined)
  -10	i	7	0.95	99	78	-0.3
CCC(=O)Nc1ccc(NC(=O)c2ccc3c(c2)OCO3)cc1
  4	i	nt	0.95	104	nt	-2.3
CCCn1c2ccccc2c2nnc(SCc3[nH]c(=O)[nH]c3C(=O)CCCCC(=O)OCC)nc21
  1	i	nt	1.1	100	nt	-0.1
CN(C1=NC(=O)C(CC(=O)Nc2ccc(Br)cc2)S1)c1ccc(O)cc1 (centres undefined)
  -6	i	29	0.8	100	64	-2.6
CCOC(=O)c1[nH]c2ccc(OC)cc2c1NC(=O)c1ccc2c(c1)OCO2
  6	i	-7	1	91	111	0.6
COc1ccc(NC(=O)COC(=O)C23CC4CC(CC(Cl)(C4)C2)C3)c(OC)c1
  2	i	-8	0.99	112	104	nt
CC1=C(C(=O)Nc2ccccc2)C(c2ccc(C)o2)N2C(=O)CSC2=N1 (centres undefined)
  -4	i	nt	0.97	98	nt	0.5
COc1ccc2c(c1)c(CCN1C(=O)c3ccccc3C1=O)cn2C(=O)c1ccco1
  0	i	-30	0.97	105	97	-1.8
OCC(CO)(CO)NCc1ccc(-c2ccccc2)cc1
  0	i	-66	1	102	128	-1.5
COc1cccc(CN2CCC(C(=O)N3CCC(C)CC3)CC2)c1
  3	i	15	0.94	99	80	nt
C/C(=N\NC(=O)C1CCCN(S(=O)(=O)c2ccccc2)C1)c1ccccn1 (centres undefined)
  -16	i	61	0.9	98	108	-1.4
Cc1oc(-c2cccs2)nc1CN1CCN(Cc2ccc(F)c(F)c2)C(CCO)C1 (centres undefined)
  -2	i	nt	1.1	109	nt	nt
Cc1nn(C)cc1CNC(=O)c1cc2n(n1)C(C(F)(F)F)CC(c1cccs1)N2 (centres undefined)
  -5	i	nt	0.9	100	nt	-0.1
COC(=O)CNc1nc(OC)nc(N(C)C)n1
  -1	i	-23	0.9	97	95	-3.7
Cc1ccc(S(=O)(=O)N(C)Cc2ccc(C(=O)N/N=C3\CCCC(=O)C3)cc2)cc1
  5	i	nt	1	100	nt	-1.0
Cc1cnc(NC(=O)CN2C(=O)C3CC=CCC3C2=O)s1 (centres undefined)
  5	i	21	0.71	105	119	-1.9
FC(F)(F)c1ccc2c(c1)n(Cc1ccccc1)c1[n+]2CCCCC1
  -9	i	nt	1.1	105	nt	nt
COc1cc(-c2nc(=S)[nH][nH]2)cc(OC)c1OC
  -1	i	nt	0.85	104	nt	nt
Nc1c(C(=O)NCc2ccc(F)cc2)c2nc3ccccc3nc2n1CCCN1CCOCC1
  -2	i	28	0.75	105	139	41*
O=C(/C=C/c1ccccc1)N1CCN(c2ccccn2)CC1
  -5	i	23	0.75	106	45	-1.4
Cc1ccc2nc(Cl)c(/C=N/Nc3ccc(C(=O)O)cc3)cc2c1
  nt	i	nt	1.1	107	nt	nt
Cc1nc2cc(S(=O)(=O)C(F)(F)F)ccc2s1
  -6	i	nt	0.92	108	nt	-0.6
Cc1ccc(NC(=O)NCCCl)cc1S(=O)(=O)N1CCOCC1
  nt	i	nt	1.2	102	nt	nt
Cc1nc(-c2nc(-c3c(C(=O)NNC(=O)Nc4ccccc4)noc3C)cs2)cs1
  nt	i	nt	0.95	95	nt	nt
CCc1nc(N[C@H](C(=O)O)C(C)CC)c2oc3ccccc3c2n1 (some centres undefined)
  7	i	-13	0.94	100	137	-0.5
COCCCNC(=O)Cn1nnc(-c2ccc(NC(=O)c3ccc(F)cc3)cc2)n1
  -2	i	44	0.91	101	131	-0.9

Next records follow.
The line under a structure holds: PKD1 kinase inh	HSV replic up	INS promoter inh	HSV replic up primary fold	RGS16-Gao	INS promoter inh cell count	GALR2 agonist
CCCCNc1c2c(nc3c(-c4ccccc4)c(C)nn13)CCC2
  -7	i	-4	0.86	109	92	1.3
O=C(NCc1cccnc1)c1noc2c1CCCC2
  -5	i	-3	0.79	54	73	-1.8
Cc1cc(N2CCOCC2)nc(N)n1
  -2	i	nt	0.92	99	nt	nt
N#C/C(=C(/O)CSc1n[nH]c(N)n1)c1nc2ccccc2[nH]1
  nt	i	nt	1	97	nt	nt
CC1=C(C(=O)OCc2ccc3c(c2)OCO3)C(c2ccc(O)c([N+](=O)[O-])c2)NC(=O)N1 (centres undefined)
  -4	i	18	0.87	103	111	nt
Cc1ccccc1NC(=O)Nc1cc(S(N)(=O)=O)ccc1C
  0	i	nt	1	102	nt	-0.3
COC(=O)c1ccccc1OCCOCCOc1cccc2cccnc12
  -6	i	-53	1	98	95	0.1
CCC(C)(C)NC(=O)c1cc([N+](=O)[O-])ccc1N1CCOCC1
  0	i	-19	1.1	119	70	-0.7
COc1ccc(N2CCN(C(=O)c3ccc(Oc4ccc(C(F)(F)F)cn4)cc3)CC2)cc1
  -7	i	12	0.83	102	84	-1.0
COc1ccc(-n2cc(CN3CCCC3)c(-c3cccc(F)c3)n2)cc1
  4	i	nt	0.8	100	nt	nt
